# TRPML1 inh: qHTS for Inhibitors of the Human Mucolipin Transient Receptor Potential 1 (TRPML1); TRPML1-inducible cells, Ca2+ dye fluorescence, FDSS; hits give low values; inhibition of EC80 agonist-evoked calcium signal; Mucolipin-1 (Homo sapiens), Q9GZU1; actives 0.02% (n = 390,000); activity change, negative = inhibition, % (no concentration beside the values); in the data active means activity change below about -50%; inconclusive means about -30% to -50%; inactive means above about -30%;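 also: stimulus is agonist 54-4 at its EC80 concentration; % is scaled to controls: 0 for no effect and ±100 for the full control effect; compound concentration not given in the record; the text of the record puts the active cut at -80%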
#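 Tet-induced TRPML1-DL cells loaded with Ca8 no-wash calcium dye were read kinetically on FDSS. Compound addition was followed by EC80 agonist 54-4 (4 uM final); inhibition was read over 110 s.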
# ClpP mod: qHTS Assay for Activators of ClpP; purified B. subtilis ClpP, FRET peptide cleavage, 20 min; Potency, µM (highest dose often 57.5 µM), without a hit: at the highest dose activity change, negative = active; actives 1.9% (n = 340,000); ATP-dependent Clp protease proteolytic subunit (Bacillus subtilis (strain 168)), P80244; active = well fitted falling curve with a large enough effect; inconclusive = small, poorly fitted or top-dose-only effect; inactive = no such curve, though single readings can be large or run the other way; also: potency is read from the fitted curve at half-maximal effect; the source files actives as falling curves though it sought activators and does not explain the sign; nearly all actives have a fitted effect of over 65% in size; many hits overshoot -100%
# Target sequence (P80244 whole entry, looked up): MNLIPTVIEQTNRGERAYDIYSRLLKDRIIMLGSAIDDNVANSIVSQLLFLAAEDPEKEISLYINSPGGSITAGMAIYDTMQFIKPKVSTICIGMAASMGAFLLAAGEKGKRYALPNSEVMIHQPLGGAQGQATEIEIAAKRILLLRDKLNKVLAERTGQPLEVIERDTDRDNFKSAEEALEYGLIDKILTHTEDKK
#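 Buffer: 100 mM Tris/HCl pH8, 100 mM KCl, 0.05% low protease BSA, 2.5% glycerol, 0.01% Tween-20. ClpP 10 microg/mL final; 20 min RT; delta FRET normalized to ADEP and DMSO controls.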
# Sfp PPTase inh: qHTS Assay for Inhibitors of Bacillus subtilis Sfp phosphopantetheinyl transferase (PPTase); 4'-phosphopantetheinyl transferase ffp (Bacillus subtilis), Q9F4F7; Potency, µM, for inactives: max response, negative = inhibition, actives largely listed as inhibitors; Biochemical Sfp PPTase activity, qHTS; AID 1490, 2009; actives 3.5% (n = 310,000); active = well fitted inhibition curve with a large enough effect; inconclusive = small, poorly fitted or top-dose-only effect, or another doubt; inactive = no such curve, though single readings can be large or run the other way;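 also: the enzyme is Sfp with the accession as filed and its product quenches rhodamine fluorescence; potency is read from the fitted curve at half-maximal effect; 0% = enzyme reaction without inhibitor and -100% = no enzyme wells; top concentration of the series not given in the record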
#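 Fluorescence-quenching assay with 15 nM Sfp, 5 uM rhodamine-CoA and 12.5 uM BHQ-2-labelled ybbR peptide in pH 7.6 Hepes/MgCl2 buffer. Enzyme was pre-incubated with compound for 15 min at room temperature. Rate was taken from the 30-min fluorescence change (525/598 nm).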
# TRPML1 ag: qHTS for Agonists of the Human Mucolipin Transient Receptor Potential 1 (TRPML1); actives 0.12% (n = 410,000); AID 624414, 2012; TRPML1-expressing cells, Ca2+ dye fluorescence, FDSS; host cell line not named in the record; reference of the full effect not given here; Mucolipin-1 (Homo sapiens), Q9GZU1; activation, % (test concentration not listed); in the data active = activation above about 50%; inconclusive = about 30% to 50%; inactive = below about 30%; also: 0% is about no effect; the text of the record puts the active cut at 80%
#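 Kinetic FDSS Ca2+ read in Tet-induced TRPML1-DL cells (ABD Ca8 dye plus quencher, 45-90 min RT loading): baseline, then compound, then 110 s agonist window; EC80 agonist 54-4 at 4uM final added afterwards for a 110 s antagonist window.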
# TRPV1 potentiator: HTS Assay for Compounds that Act as Potentiators of the Vanilloid Receptor 1; Transient receptor potential cation channel subfamily V member 1 (Homo sapiens), Q8NER1; TRPV1-expressing cells, Fluo-8 calcium influx, capsaicin EC20 potentiation; host cell line not named in the record; control for the full effect not named in the record; potentiation, % at 8.33 µM; actives 0.02% (n = 320,000); active means potentiation above 80%; inconclusive means 30% to 80%; inactive means below 30%; also: 0% is about no effect
# Target sequence (Q8NER1 whole entry, looked up): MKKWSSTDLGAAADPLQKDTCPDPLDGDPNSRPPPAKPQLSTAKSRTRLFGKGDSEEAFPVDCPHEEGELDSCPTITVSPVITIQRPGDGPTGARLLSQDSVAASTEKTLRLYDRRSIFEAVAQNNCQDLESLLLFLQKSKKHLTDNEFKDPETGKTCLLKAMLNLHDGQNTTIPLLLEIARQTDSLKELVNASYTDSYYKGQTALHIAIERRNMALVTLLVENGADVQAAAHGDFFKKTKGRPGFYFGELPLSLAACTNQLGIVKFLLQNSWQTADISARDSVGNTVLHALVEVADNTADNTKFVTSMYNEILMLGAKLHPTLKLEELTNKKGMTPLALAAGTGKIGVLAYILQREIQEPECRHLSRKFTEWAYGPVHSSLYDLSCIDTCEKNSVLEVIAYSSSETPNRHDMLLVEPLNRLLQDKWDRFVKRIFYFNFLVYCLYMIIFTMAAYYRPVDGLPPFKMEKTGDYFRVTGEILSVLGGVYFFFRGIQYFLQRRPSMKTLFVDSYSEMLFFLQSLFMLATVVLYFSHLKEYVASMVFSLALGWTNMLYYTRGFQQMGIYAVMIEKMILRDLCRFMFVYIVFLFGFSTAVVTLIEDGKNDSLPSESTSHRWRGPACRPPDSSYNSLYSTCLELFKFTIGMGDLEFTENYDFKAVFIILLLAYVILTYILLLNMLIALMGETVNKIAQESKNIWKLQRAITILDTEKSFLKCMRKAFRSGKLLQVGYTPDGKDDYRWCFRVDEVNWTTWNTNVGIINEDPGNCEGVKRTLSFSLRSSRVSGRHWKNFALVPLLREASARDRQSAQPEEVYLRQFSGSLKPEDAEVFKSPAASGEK
#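 Fluo-8 calcium influx in TRPV1-expressing cells, kinetic read (ex 480/em 520 nm). Compound added and read 3 min for agonist activity, followed by capsaicin at EC20 final and 2 min further read for enhancement.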
# Menin MLL FP FL: qHTS Assay for Inhibitors Targeting the Menin-MLL Interaction in MLL Related Leukemias: Competition With Fluorescein Labeled MLL-derived Peptide; AID 1766, 2009; FP activity change, % at 61.4 µM; Fluorescence polarization, fluorescein-MLL peptide displacement from menin; 290,000 tested, under 10 active; inconclusive = falling polarisation curve, or a change in total fluorescence; inactive = total fluorescence flat and polarisation flat or rising; no compound was filed as active; the % refers to the polarisation; negative = inhibition;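 also: % of control where 0% means no effect; inhibitors lower the polarisation; unlabelled MLL peptide was the positive control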
# PINK1 expr mod: A Quantitative High throughput Screen to Identify Chemical Modulators of PINK1 Expression; Potency, µM (series often up to 76.6 µM), for the others: at the highest dose activation (PINK1 increase), actives largely listed as activators; AID 624263, 2012; PINK1 immunofluorescence, high-content cytometry, 24 h; actives 0.2% (n = 410,000); active = well fitted activation curve with a large enough effect; inconclusive = small, poorly fitted or top-dose-only effect; inactive = flat fitted curve, though single readings scatter; cell line not stated here;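 also: potency is read from the fitted curve at half-maximal effect; % of control where 0% means no effect; nearly all actives have a fitted effect of over 65% in size; a mitochondrial uncoupler was the plate control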
#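 PINK1 protein, normally rapidly degraded, was detected by immunofluorescence after 24 hour compound treatment of a stable cell line. Titration data (5 concentrations) came from laser-scanning cytometry, with CCCP-treated wells as controls.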
# Active calls of the source: *; ? = inconclusive; · = not tested or not shown; & = joins results of further samples; [ ] = dose if it differs, or a comment.
SMILES,TRPML1 inh,ClpP mod,Sfp PPTase inh,TRPML1 ag,TRPV1 potentiator,Menin MLL FP FL,PINK1 expr mod
O=C(O)CN1C(=O)/C(=C\c2cc(Br)ccc2OCc2ccc(Cl)cc2)SC1=S,-9,0.1%,-25%,1.7,9,11,-0.7%
COc1ccc2c(c1)NC(c1ccc(F)cc1)=NC(c1ccc(F)cc1)=N2,-2,-0.5%,·,-0.3,·,·,-0.7%
CCOC(=O)C1CCN(C(=O)CSC2=NCCS2)CC1,22,-2.6%,?,0.3,0,6.0,0.6%
Cc1ccc(C(=O)N/N=C/c2ccoc2)cc1C,20,-0.5%,-7%,0.4,-12,1.4,2.6%
Cc1cccc(-n2nc3c(c2NC(=O)c2ccco2)CS(=O)(=O)C3)c1C,-9,·,12%,-0.7,-9,?,0.0%
CC(=O)c1ccc(NC(=O)CCc2ccc(C)o2)cc1,5,·,16%,0.1,-11,2.2,-0.9%
CCCCc1ccc(NC(=O)CN2C(=O)NC(Cc3ccccc3)C2=O)cc1 (centres undefined),9,·,·,1.2,25,·,2.6%
O=C(Nc1ccc(Cl)c(Cl)c1)C1=Cc2ccccc2OC1,0,-16%,?,0.7,5,3.2,18%
CCOC(=O)C1CCCN(C(=O)Cn2ncc3c(C)n(Cc4ccc(Cl)cc4)c(C)c3c2=O)C1 (centres undefined),-24,-4.7%,·,0.1,·,·,0.2%
O=C(O)CC(NC(=O)C(c1ccccc1)c1ccccc1)c1ccc(F)cc1 (centres undefined),6,1.4%,19%,-0.6,2,4.1,1.2%
COc1ccc(S(=O)(=O)N2CCCCC2)cc1NS(=O)(=O)c1ccc(CNC(C)=O)cc1,17,1.8%,·,0.2,·,·,-0.7%
COc1ccc(OCC(=O)c2c(O)c3ccccc3oc2=O)cc1,-8,-8.7%,20µM*,2.7,5,2.7,0.9%[38.3 µM]
CC(=O)N1CCCc2cc(S(=O)(=O)N3CCCC(C(=O)NCc4ccc(C)cc4)C3)ccc21 (centres undefined),-3&-11,1.7%&0.8%,7%,-0.7&-0.1,4,-9.2,-0.9%&-0.2%
CC(=O)N1c2ccc(S(=O)(=O)N3CCC(C(=O)N4CCN(c5ccc(Cl)cc5)CC4)CC3)cc2CC1C (centres undefined),19,-3.0%,13%,0.0,-3,·,4.5%
Cc1cc(N/N=C/c2ccc(O)cc2O)nc(N2CCOCC2)n1,1,·,-16%,0.2,-5,0.9,3.4%

# Next part, overlapping the part above by two compounds.
SMILES,TRPML1 inh,ClpP mod,Sfp PPTase inh,TRPML1 ag,TRPV1 potentiator,Menin MLL FP FL,PINK1 expr mod
CC(=O)N1c2ccc(S(=O)(=O)N3CCC(C(=O)N4CCN(c5ccc(Cl)cc5)CC4)CC3)cc2CC1C (centres undefined),19,-3.0%,13%,0.0,-3,·,4.5%
Cc1cc(N/N=C/c2ccc(O)cc2O)nc(N2CCOCC2)n1,1,·,-16%,0.2,-5,0.9,3.4%
CC(=O)c1ccc(NC(=O)Nc2ccc(Cl)cc2)cc1,-1,-4.2%,-9%,2.3,-24,1.4,·
C/C(=N\NC(=O)c1ccc(Br)o1)c1cc2c(cc1NC(=O)CCC(=O)O)OCO2,-13,1.5%,45µM*,-0.2,25,·,0.1%
COc1ccc(C(OCC(O)CN2CCC(O)CC2)c2ccc(OC)cc2)cc1 (centres undefined),8,-1.3%,5%,-0.5,5,-12,-0.3%
COc1ccc(C(=O)NC(C)C2CC3CCC2C3)c(OC)c1 (centres undefined),-10,0.3%,2%,2.1,-20,1.3,2.9%
CCOC(=O)c1ccc(S(=O)(=O)N2CCC(C(=O)NCc3ccccc3OC)CC2)cc1,-15,1.4%,·,2.1,-11,·,-0.3%
CC(C)N(Cc1ccccc1)C(=O)CCS(=O)(=O)c1cc2c(cc1Cl)NC(=O)CO2,-15,1.5%,·,1.5,·,·,0.0%
O=C(C1CC1)N1CCc2cc(Br)c(S(=O)(=O)N3CCCCCC3)cc21,78,·,·,0.3,·,·,8.5%
CC(=O)N1CCC(=O)Nc2ccc([N+](=O)[O-])cc21,-12,0.4%,23%,0.3,-5,0.4,-0.8%
Cc1c(NC(=O)COC(=O)c2c3c(nc4ccccc24)CCCC3)c(=O)n(-c2ccccc2)n1C,4,4.0%,12%,-0.5,4,-0.8,15%
Cc1ccc(C(C)C)c(OC(=O)/C=C/c2ccccc2)c1,-8,1.2%,-5%,0.3,·,-0.3,4.6%[38.3 µM]
O=c1[nH]c2ccc(Cl)cc2c(-c2ccccc2)c1CN1CCOCC1,-9,-20%,-4%,-0.1,-2,0.3,-1.1%[38.3 µM]
Fc1ccc(CN2CCCCCCC2)c(F)c1,13,0.4%,-16%,-0.6,-10,-0.3,-1.0%
Cc1cc(C)n(-c2ccc(OCC(=O)O)nn2)n1,4,2.2%,4%,0.0,5,3.0,-0.6%
O=S(=O)(NC1CC1)c1ccc(Br)cc1N1CCC[C@H]1CO,13,-0.7%,·,0.2,·,·,-1.0%
CN(C)c1cc(Nc2ccc(O)cc2)c([N+](=O)[O-])c2nonc12,·,1.1%,5%,·,-6,0.5,2.3%
COC(=O)c1sccc1NC(=O)c1cc(C)on1,-10,?,-4%,-0.1,-6,-0.8,3.0%[38.3 µM]
O=C1CC(NS(=O)(=O)c2ccc(F)cc2)CN1c1ccc2c(c1)OCCO2 (centres undefined),12,1.7%,·,0.8,-4,·,-0.3%
C=CCS/C(N)=N\N=C\c1c(O)ccc2ccccc12,-8,0.0%,1%,0.6,17,1.0,0.1%
COc1ccc(OCCOC(=O)c2cccs2)cc1,5,0.3%,11%,-0.9,-17,5.9,4.2%
CCOC(=O)c1c(NC(=O)C(C)OC(=O)c2ccc(NC(=O)CC#N)cc2)sc2c1CCCC2 (centres undefined),-17,-17%,·,-0.1,-8,·,?
O=C(CN1CCC(NC(=O)c2cccc(F)c2)CC1)NCc1cccs1,-10,·,10%,0.2,-10,-1.2,0.6%
CN(C)c1ccc(P(=O)(OCc2ccccc2)C(O)c2ccccc2F)cc1 (centres undefined),5,·,-1%,-0.8,·,1.2,2.5%
CCCCCN(C(=O)CCC(=O)OCc1ccc(C(C)(C)C)cc1)c1c(N)n(CCCC)c(=O)[nH]c1=O,-4,1.9%,9%,0.1,-11,·,-0.8%
COC(=O)c1cc(C(=O)Cc2ccccc2)c[nH]1,·,·,16%,·,-12,-0.7,·
CC(=O)NC(c1ccc(F)c(F)c1)c1nc(-c2ccc(F)c(Cl)c2)cs1 (centres undefined),·,-1.2%,·,-0.2,·,·,5.7%
Cn1c(SCc2ccc(F)cc2)nc2c([nH]c3ccccc32)c1=O,-1,0.9%,·,0.3,·,·,0.9%
CC(Oc1ccc(F)cc1)C(=O)N1CCN(c2ncccn2)CC1 (centres undefined),-10,4.0%,8%,-0.3,-2,·,0.6%
Nc1ncnc2c1ncn2[C@@H]1O[C@H](CN=C2NS(=O)(=O)c3ccccc32)[C@@H](O)[C@H]1O,-5,2.4%,·,-0.5,·,·,0.0%
CSCCC(c1nnnn1C1CCCCC1)N1CCN(C/C=C/c2ccccc2)CC1 (centres undefined),·,0.8%,·,-0.1,·,·,6.7%
CCOC(=O)c1c(C)n(-c2ccccc2)c2ccc(OC(=O)COc3ccccc3)cc12,6,3.8%,·,-1.2,·,·,1.0%
C/C(=N\OCC(=O)OCC(=O)N(Cc1ccccc1)C(C)(C)C)c1ccc2c(c1)OCO2,4,1.0%,·,0.8,23,·,6.1%
O=C(CN1C(=O)c2ccccc2C1=O)NC(Cc1ccccc1)C(=O)O (centres undefined),-27,-1.1%,·,-0.2,·,·,1.7%
COc1ccc(CNc2nc(-c3cccnc3)nn2S(C)(=O)=O)cc1,11,·,18%,0.0,?,2.0,0.1%
CCOC(=O)c1ccccc1NC(=O)COC(=O)CC1CCCCC1,10,-12%,-6%,0.5,-13,-1.4,2.3%
Cc1cc(C)c2nc(NC(=O)c3ccc(S(=O)(=O)N4CCC(C)CC4)cc3)sc2c1,-5,3.6%,·,1.2,·,·,-3.4%
COc1ccc(-c2nc(CC(=O)O)cs2)cc1OC,·,·,11%,·,2,1.9,·
COC(=O)c1c(N)c2ccccc2[nH]c1=O,9,?,14%,0.3,4,1.0,0.7%
O=C1CC(NC2CCN(C(=O)c3cccc(F)c3)CC2)C(=O)N1 (centres undefined),14,·,20%,0.6,-3,·,-0.2%
Nc1c(N(CCCO)C(=O)C2CCCCC2)c(=O)[nH]c(=O)n1Cc1ccccc1,29,-1.4%,·,0.0,·,·,-0.1%
Cc1cccc(OCC(=O)Nc2ccccc2OCc2cc(=O)n3cc(C)ccc3n2)c1,-5,-3.6%,·,-0.7,·,·,-0.3%
CCOc1c(C(N)=O)c(-c2ccccc2)c2c(=O)[nH]c3ccccc3n12,-13,?,1%,1.2,3,-1.9,15%
CCCCNC(=O)c1ccc(-c2nc(CS(=O)(=O)c3ccc(C)cc3)c(C)o2)cc1,-13,4.4%,·,-0.3,·,·,4.9%
Cc1c(C(=O)O)cccc1-c1ccc(/C=C2\SC(=O)NC2=O)o1,0,-2.2%,-9%,-0.5,-12,-0.6,-0.3%
CN(c1ccc(C(=O)NC2CCCC2)cc1)S(=O)(=O)c1ccc(Cl)cc1,-17,-3.3%,2%,3.2,15,·,3.3%
CN(C)c1cc[nH]c(=O)c1C#N,-9,-1.9%,1%,-0.3,3,0.4,2.6%
CC(C)OC(=O)c1cn(-c2ccccc2)nc1-c1ccco1,-6,0.6%,8.9µM*,1.2,15,7.0,3.0%
O=C(O)C1C2C=CC(O2)C1C(=O)Nc1ccc(S(=O)(=O)N2CCc3ccccc32)cc1 (centres undefined),-4,-1.2%,-19%,-0.2,-1,-0.3,0.6%[38.3 µM]
COC(=O)Cn1c2c(c3cc(C)ccc31)CCCC2,13,-2.2%,-2%,-0.9,10,4.0,1.7%
COc1ccccc1/C=N/Nc1nc(C)cc(=O)[nH]1,-4,-8.5%,·,-0.8,·,·,0.6%

# Assay outcomes from PubChem.
